# From PubChem BioAssay
# VACV mCherry inh – inhibitors of vaccinia virus infection (mCherry reporter signal) | Vaccinia virus mCherry reporter infection, fluorescence; about a quarter of the inactives have no number | Potency, µM (highest dose often 36.5 µM), without a hit: at the highest dose activity change, negative = inhibition, most hits filed as inhibitors | 310,000 compounds, 0.63% hits; active = well fitted inhibition curve with a large enough effect; inconclusive = small, poorly fitted or top-dose-only effect; inactive = no such curve, though single readings can be large or run the other way; tested in A549 cells; also: nearly all actives have a fitted effect of over 35% in size; inactives centre near -10
# VACV Venus inh – vaccinia inhibition (Venus reporter). Vaccinia virus Venus reporter expression, fluorescence. 330,000 compounds, 0.46% hits. Potency, µM (doses to about 36.5 µM), for the others: at the highest dose activity change, negative = inhibition, hits mostly inhibitors; active means well fitted inhibition curve with a large enough effect; inconclusive means small, poorly fitted or top-dose-only effect; inactive means no such curve, though single readings can be large or run the other way; tested in A549 cells; also: nearly all actives have a fitted effect of over 30% in size; inactives centre near -10
# Starred values were filed as active, the others as inactive; i = inactive; ? = inconclusive; . = no result given; & = joins results of further samples; [ ] = another dose, or the depositor's remark. % is scaled to controls: 0 for no effect and ±100 for the full control effect; potency is read from the fitted curve at half-maximal effect. Compounds were not picked by outcome. Share with any hit: about 0.82%.
SMILES,VACV mCherry inh,VACV Venus inh
O=C(NCc1ccc(Cl)cc1)C1(c2cccs2)CCOCC1,-9.0%,3.4%
Nc1nc2ccc(C(=O)NC3CCCCC3)cc2s1,.,4.6%
Cc1cc(Br)ccc1SCC(=O)OCC(O)=C(C#N)c1nc2ccccc2[nH]1,2.6%,7.6%
COc1ccc(/C=C(\NC(=O)c2ccco2)C(=O)N2CCOCC2)cc1,-16.7%,-17.0%
O=C(C1CCCN(S(=O)(=O)c2cnc[nH]2)C1)N1CCN(Cc2ccccc2)CC1 (stereo unspecified),5.8%,0.4%
COc1ccc(S(=O)(=O)N2CCCOC2CNC(=O)C(=O)NCc2ccccc2F)cc1C (stereo unspecified),?,-26.9%
N#CC(CCc1ccccn1)c1ccccc1 (stereo unspecified),-21.0%,-15.1%
CC(C)C[C@@H](CN)NC(=O)c1nc[nH]c1C(=O)N[C@@H](Cc1c[nH]c2ccccc12)C(=O)CNC[C@H](C)NC(=O)c1nc[nH]c1C(=O)N[C@@H](C)C(=O)O,-13.4%,2.0%
O=S(=O)(Nc1n[nH]c(C(F)(F)F)n1)c1ccccc1,i,-0.6%
Fc1ccccc1C1c2[nH]c3ccccc3c2CCN1Cc1cccn1-c1ncccn1 (stereo unspecified),?,11.3%
O=C(N/N=C1/CCSC1)c1cc(Br)ccc1O,10.9%,0.5%
COc1ccc(-n2c(C)cc(C(=O)COc3ccc(C)nc3[N+](=O)[O-])c2C)cc1,-6.3%,-4.5%
CN(C)C(=O)c1cccc(-c2cnc3c(NC=O)cc(-c4ccccc4N(C)C)cn23)c1,?,-27.5%
Cc1ccc(C(=O)N2CCN(c3ccccc3O)CC2)cc1S(=O)(=O)N1CCCCC1,-13.9%,?
Cc1nn(C(C)C(=O)NCCc2ccco2)c(=O)c2nn(-c3ccccc3)c(C)c12 (stereo unspecified),i,-11.7%
COc1ccccc1C(=O)N/C(=C/c1ccccc1)C(=O)Nc1ccc(C(=O)O)cc1,-7.4%,-7.0%
COc1ccc(N2CCN(C(=O)c3ccc(CS(=O)(=O)c4ccc(Br)cc4)o3)CC2)cc1,13.0%[7.34 µM],25.5%[7.34 µM]
COc1cc(NC(=O)c2ccc(C(=O)c3ccccc3)cc2)cc(OC)c1OC,i,-7.9%
O=c1cc(CSc2nnc(Nc3ccccc3)s2)nc2sccn12,?,?
COc1ccc(OC)c(/C=N\NC(=O)c2ccc(COc3ccc(C)cc3[N+](=O)[O-])o2)c1,i,-9.4%
O=C(c1ccc(S(=O)(=O)N2CCCC2)cc1)N1CCN(c2ccccc2)CC1,-14.3%,3.9%
COc1ccc(N(CC(=O)NCCc2ccc(OC)c(OC)c2)S(=O)(=O)c2c(C)noc2C)cc1,-14.2%,2.1%
CC1=Nc2cc(C(=O)NC3CCCC3)ccc2Sc2ccc(Cl)cc21,?,?
Cc1ccc(NC(NC(=O)c2cccnc2)C(Cl)(Cl)Cl)cc1 (stereo unspecified),-25.1%,13.8%
O=C(N=c1ccn(-c2nc3ccccc3nc2NS(=O)(=O)c2ccc(Cl)cc2)cc1)c1cccs1,-6.9%,3.8%

# Structural class, the entries above with bromine (3)
SMILES,VACV mCherry inh,VACV Venus inh
Cc1cc(Br)ccc1SCC(=O)OCC(O)=C(C#N)c1nc2ccccc2[nH]1,2.6%,7.6%
O=C(N/N=C1/CCSC1)c1cc(Br)ccc1O,10.9%,0.5%
COc1ccc(N2CCN(C(=O)c3ccc(CS(=O)(=O)c4ccc(Br)cc4)o3)CC2)cc1,13.0%[7.34 µM],25.5%[7.34 µM]

# Going on with the list:
SMILES,VACV mCherry inh,VACV Venus inh
O=C(CN1C(=O)NC2(CCCC2)C1=O)Nc1cccc(Cl)c1Cl,-1.9%,-9.7%
Cc1ccc(C(=O)N(CCCN(C)C)c2nc3ccc(Cl)cc3s2)cc1C,25.5%,-22.0%
COc1ccnc(N2CCN(c3ccc(Cl)cc3)CC2)c1C#N,-15.2%,-9.0%
CC1CCN(S(=O)(=O)c2ccc3c(c2)N(CC(=O)NC(C)C)C(=O)CO3)CC1,-10.4%,-11.3%
CN(C)c1ccc(/C=C/c2ccnc3c([N+](=O)[O-])cccc23)cc1,-24.9%,-12.8%
COc1ccc(-c2nc(C#N)c(N3CCCCC3)o2)cc1,-10.9%,-0.5%
CCCOC1CCCN(Cc2nc(-c3ccc(C(=O)OC)cc3)no2)C1 (stereo unspecified),-0.9%[7.34 µM],0.0%[7.34 µM]
O=C(C(Cc1ccccc1)N1C(=O)C2C3CCC(C3)C2C1=O)N1CCCCC1 (stereo unspecified),i,-8.9%
CC(=O)NC(c1cccc(F)c1)c1nc(/C=C/c2ccccc2)cs1 (stereo unspecified),-9.7%,-11.6%
O=C(O)/C=C/c1ccc(-n2ccnc2)cc1,-0.4%,-7.2%
COc1ccc(C(CC(=O)c2ccc3c(c2)OCO3)C(=O)O)cc1OC (stereo unspecified),2.7%,1.0%
CC(C)OCCCNC(=O)c1ccc(NS(C)(=O)=O)cc1,i,-5.6%
CC1(C)Cc2ccccc2-c2c[nH]c(=O)n21,i,-11.1%
O=C(COc1cccc2c1CCNC2=O)Nc1ccc(Cl)cc1,-8.7%,1.6%
CC(C)CN(C(=O)c1ccc(S(=O)(=O)N2CCOCC2)cc1)C1CCS(=O)(=O)C1 (stereo unspecified),2.1%,-5.4%
CCc1cc(C(=O)N2CCN(S(=O)(=O)c3ccc(Cl)cc3)CC2)sc1C,-8.3%,-22.3%
COc1ccc(C(=O)Nc2ccc3nc(N4CCN(C)CC4)cc(C)c3c2)c(OC)c1,-8.8%,-24.8%
COc1cc(SC)ccc1C(=O)Nc1ccc(S(=O)(=O)N2CCCC2)cc1,.,-15.5%
COc1ccc(S(=O)(=O)NC2CC2)cc1-n1cnnn1,-15.0%,-5.3%
O=C(NCC(F)(F)F)c1cc2c(c(-c3cccc(-c4ccccc4F)c3)n1)[C@H](CCO)N(C(=O)CC1CC1)C2,?,?
Cc1cccc(N2CCN(Cc3nc(-c4ccccc4Cl)oc3C)CC2)n1,-5.3%,-10.9%
CCCCCNC(=O)C1C(=O)Nc2ccccc2C(=O)N1c1ccc(OC)cc1 (stereo unspecified),-13.1%,-9.7%
CCCn1c(=O)c2c(ncn2C)n(CCC)c1=O,-1.1%&-15.5%,-13.1%&-3.8%
CNC(=O)c1cc(Cl)c(OC)c(OC)c1,-10.6%,8.8%
CCCCNC(=O)COC(=O)c1ccc(F)cc1Cl,-14.9%,-10.5%

# Further entries follow.
SMILES,VACV mCherry inh,VACV Venus inh
Cc1ccccc1-c1oc(C)c(C)[n+]1[O-],-5.4%,-11.9%
Cc1ccc(NC(=O)CSc2nnc(-c3ccoc3C)n2CCCN(C)C)cc1Cl,-9.6%,-16.9%
Cc1cc2nc(Sc3c([N+](=O)[O-])nc(C)n3Cc3ccccc3)[nH]c2cc1C,?,?
COc1ccc(C(=O)N/N=C/c2c(C)nn(-c3ccccc3)c2OC)cc1,?,-28.0%
O=C(CC1OC(=O)c2ccccc21)Nc1ccc(Cl)c(S(=O)(=O)N2CCCCC2)c1 (stereo unspecified),-19.8%,-25.1%
C=CCn1c(SCC(=O)Nc2cccc(S(=O)(=O)N(C)c3ccccc3)c2)nnc1C1CC1,?,?
CCOc1ccc(C(C)(C)C)cc1S(=O)(=O)N1CC(C)OC(C)C1 (stereo unspecified),.,-14.6%
Cc1cccc(OC(C)C(=O)OCC(=O)N2CCN(c3ccccc3)CC2)c1 (stereo unspecified),-21.4%,-12.2%
CC(C)c1ccc(NC(=O)c2ccc(Cn3nc(N4CCN(c5ccccc5)CC4)ccc3=O)o2)cc1,?,?
COc1ccccc1CNC(=O)c1cccnc1,-21.6%,-22.2%
Cc1ccc(C)c(S(=O)(=O)Nc2ccc3sc(C)nc3c2)c1,?,-28.3%
O=C(COc1ccc(S(=O)(=O)NC2CCCCC2)cc1)NCC1CCCO1 (stereo unspecified),-17.2%,-5.3%
Cc1ccc(Cl)cc1N1CCN(C(=O)c2cn(C)c3ccc(S(=O)(=O)N4CCC(C)CC4)cc3c2=O)CC1,-23.3%,-12.4%
Cc1cc(C)n(-c2ccc(C(=O)OCC(=O)Nc3ccc([N+](=O)[O-])cc3)cc2)n1,-11.1%,-11.9%
O=c1[nH]c(Cc2ccccc2)nc2scc(-c3ccccc3)c12,.,-14.7%
COc1ccc(/C=C/C(=O)c2c(C)cc(C)[nH]c2=O)c2ccccc12,8.91µM*,?
OC[C@H]1OC(O)C[C@@H](O)[C@@H]1O (stereo partly specified),-10.2%,-3.6%
CCOC(=O)CC1C(=O)NCCN1C(=O)COc1ccc(Br)cc1C (stereo unspecified),-1.4%,-10.8%
CN1CCc2c(sc3c2C(=O)NC(c2ccc(OC(=O)c4ccc(C(C)(C)C)cc4)cc2)N3)C1 (stereo unspecified),-20.7%,-7.9%
COc1ccc(/C=C/C2=NNC(=O)CC2)cc1,-3.5%,4.7%
COc1cc2c(cc1OC)C(=O)C(Br)CC2 (stereo unspecified),-1.6%,-7.2%
O=C(c1cc2ccccc2o1)N1CCN=C1SCc1cccc(F)c1,i,-8.1%
O=C(O)c1ccc(N2CC3CC(C2)c2cccc(=O)n2C3)c(NC(=S)Nc2ccc(Br)cc2)c1 (stereo unspecified),i,-11.7%
Cc1sc2nc(CN(Cc3cccs3)C(=O)NC3CCCCC3)[nH]c(=O)c2c1C,-28.3%,?
CC(C)C(C(=O)Nc1nccs1)N1C(=O)c2ccccc2C1=O (stereo unspecified),-4.9%,-7.2%

# Carrying on:
SMILES,VACV mCherry inh,VACV Venus inh
Cc1ccc(NC(=O)C2CCCN2C(=O)NC2CCCCC2)cc1C (stereo unspecified),i,-2.9%
COc1ccccc1-c1sc2ccccc2c1C#Cc1ccc(N(C)C)cc1,?,-4.8%
Cc1csc(Sc2ccc(C(=O)OCC(=O)Nc3ccc(OC(F)(F)F)cc3)cc2[N+](=O)[O-])n1,-9.9%,-10.1%
Cc1ccc(NC(=O)COC(=O)Cc2ccc(Br)cc2)cc1S(=O)(=O)N1CCOCC1,-25.1%,-10.7%
CCc1nc2ccc(C(=O)Nc3ccc4c(c3)OCC(=O)N4)cn2c1N(C)C(=O)C1CCCCC1,42.2%[activator],4.8%
CCCCCCCCSc1nnc(CSc2nc3nc(C)cc(C)n3n2)o1,-10.4%,-5.3%
Cc1noc(NS(=O)(=O)c2ccc(NC(=O)c3ccc(Br)o3)cc2)c1C,7.3%,3.0%
CCOC(=O)CNC(c1ccccc1)c1cc(Br)ccc1NC(C)=O (stereo unspecified),?,-10.9%
COc1ccc(C2C3=C(CCCC3=O)Nc3nc(C(F)(F)F)nn32)cc1OC (stereo unspecified),-11.1%,-14.8%
Nc1c(Cl)cc(-c2csc(N3CCCC3c3nc4cc(Cl)c(Cl)cc4n3CCOCCO)n2)cc1Cl (stereo unspecified),?,-18.7%
CCCC(=O)N1CCC1(C)C(=O)Nc1cccc(F)c1 (stereo unspecified),7.5%,-1.2%
COc1cccc(C(=O)Nc2c(C(=O)c3ccc(F)cc3)oc3ccccc23)c1,-18.0%,-25.0%
Cc1c(NC(=O)CN2CCN(c3cccc(Cl)c3)CC2)c(=O)n(-c2ccccc2)n1C,-14.7%,-18.8%
CC(C)Cc1nc(N2CCOCC2)c(C#N)c2c1CCC2,i,-11.3%
CC(Sc1n[nH]c(=O)n1Cc1ccccc1)C(=O)NC1CCCCC1C (stereo unspecified),i,-16.6%
COc1ccc(NCc2cc3ccc(OC)cc3n(CC(=O)Nc3cc(Cl)ccc3C)c2=O)cc1,7.0%,11.0%
O=C(NC1CCCC1)c1cc(-c2cccs2)on1,-10.4%&-15.6%,-15.5%&-27.1%
COC(=O)c1c(C)[nH]c(C)c1-c1ccc(C)cc1,.,-23.3%
CCOC(=O)N1CCN(C(=O)CSC2=NS(=O)(=O)c3ccccc3N2)CC1,i,-13.5%
O=C(N/N=C/C=C/c1cccc([N+](=O)[O-])c1)c1ccncc1,-18.3%,-8.6%
O=C(CSc1ncn(-c2ccccc2)n1)N1CCN(c2ccccc2)CC1,-10.8%,-4.7%
Clc1ccc(N2CCN(c3nc4nonc4nc3N3CCSCC3)CC2)nc1,-2.1%,-0.9%
CCN1C(=O)N[C@H](c2ccccc2)C(C(C)=O)=C1C,i,-1.6%
Cc1onc(-c2ccccc2Cl)c1C(=O)N1CCOC12CCCCC2,i,-12.9%
CC(C)CCCC(C)C1CCC2C3CC(O)[C@@]4(O)CC(O)CC[C@@]4(C)C3CC[C@@]12C (stereo partly specified),-23.2%,-27.2%

# Additional compounds:
SMILES,VACV mCherry inh,VACV Venus inh
O=C(Nc1nc2ccc(C(=O)N3CCCCC3)cc2s1)C1CCCCC1,-11.1%,-2.0%
CC(C)CC(/C(O)=C(\C#N)c1nc2ccccc2[nH]1)N1C(=O)c2ccccc2C1=O (stereo unspecified),.,?
O=C(COC(=O)c1cccc(S(=O)(=O)N2CCCC2)c1)Nc1cccc(Br)c1,-5.8%,-9.5%
Cc1ccnn1CCC(=O)N1CCCC(CCC(=O)NCc2ccccc2F)C1 (stereo unspecified),-12.8%,-11.7%
CC(=O)c1cccc(NC(=O)c2ccc3nc(C(C)C)oc3c2)c1,-5.1%[7.34 µM],-6.6%[7.34 µM]
COc1cccc(NC(=O)C(=O)NCCC2CCCCN2S(=O)(=O)c2ccccc2)c1 (stereo unspecified),-23.9%,-17.0%
COc1ccc(N)cc1S(=O)(=O)Nc1ccccc1Cl,?,-15.2%

# Some of the entries so far, with two lines to a compound:
# Every second line gives: VACV mCherry inh | VACV Venus inh
CC(C)CC(/C(O)=C(\C#N)c1nc2ccccc2[nH]1)N1C(=O)c2ccccc2C1=O (stereo unspecified)
 : . | ?
O=C(COC(=O)c1cccc(S(=O)(=O)N2CCCC2)c1)Nc1cccc(Br)c1
 : -5.8% | -9.5%
Cc1ccnn1CCC(=O)N1CCCC(CCC(=O)NCc2ccccc2F)C1 (stereo unspecified)
 : -12.8% | -11.7%
